HPGD block: inhibitors of human 15-hydroxyprostaglandin dehydrogenase (HPGD); P15428; purified HPGD, NADH fluorescence kinetic, PGE2 substrate; Potency, µM, for inactives: at the highest dose activity change, negative = inhibition, usual class: inhibitors; actives 4.3% (n = 150,000); active = well fitted inhibition curve with a large enough effect (not every such curve was filed as active); inconclusive = small, poorly fitted or top-dose-only effect, or another doubt; inactive = no such curve, though single readings can be large or run the other way;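 also: top concentration of the series not given in the record; plate controls included wells without enzyme; inactives centre near -10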
Target sequence (P15428 whole entry, looked up): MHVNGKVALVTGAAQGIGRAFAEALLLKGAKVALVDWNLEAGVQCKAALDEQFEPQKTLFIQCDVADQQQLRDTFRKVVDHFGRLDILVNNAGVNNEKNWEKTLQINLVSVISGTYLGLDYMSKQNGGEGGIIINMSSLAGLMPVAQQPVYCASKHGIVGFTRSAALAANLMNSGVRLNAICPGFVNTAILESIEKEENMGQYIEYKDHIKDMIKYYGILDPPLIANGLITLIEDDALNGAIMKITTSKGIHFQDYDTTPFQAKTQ
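20 nM HPGD preincubated 15 min at room temperature with compound in 50 mM Tris-HCl pH 8, 0.01% Tween 20. Started with 1 mM NAD+ and 30 uM prostaglandin E2; NADH fluorescence (360/450 nm) read 5 times over 30-s intervals, last minus first.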
* marks the source's active call; other numbers are inactive results; ? = inconclusive; & = joins results of further samples. % is scaled to controls: 0 for no effect and ±100 for the full control effect; potency is read from the fitted curve at half-maximal effect. A portion of the library; rates above refer to the full screens.

| HPGD block | canonical_smiles |
| --- | --- |
| -22% | CCCn1cc(NC(=O)c2cc(-c3ccccc3)on2)cn1 |
| -2% | C[N+]12CCC(CC1)[C@@H](OC(=O)C(O)(c1ccccc1)c1ccccc1)C2 |
| -27% | CCC(C)c1ccccc1NC(=O)COC(=O)c1ccc(N2CCCC2)c([N+](=O)[O-])c1 (centres undefined) |
| -5% | CCOC(=O)C1=C(SCC(=O)Nc2ccccc2)NC(=O)C(C#N)C12CCCCC2 (centres undefined) |
| -9% | O=C(Nc1ccccc1N1CCCC1)c1ccc2c(c1)OCO2 |
| -12% | CCOc1cc(C)c(Cl)cc1S(=O)(=O)NCc1ccco1 |
| ? | COCc1cc(C)nc(OCC(=O)N/N=C/c2ccco2)c1C#N |
| -3% | O=S(=O)(c1cc(Cl)ccc1Cl)N1CCNCC1 |
| -16% | C/C(=N\OC(=O)c1ccc(OC(C)C)cc1)c1ccc(C)c(C)c1 |
| -1% | O=C(OCC(=O)N1CCN(C(=O)c2ccco2)CC1)c1ccc(S(=O)(=O)N2CCCCC2)cc1 |
| -12% | Cn1c(SCc2cccc(C(F)(F)F)c2)nnc1-c1ccco1 |
| ? | CC(C)CN(C(=O)CSc1nnc2ccccn12)c1c(N)n(CC(C)C)c(=O)[nH]c1=O |
| 2% | COc1ccc(NC(=O)C2CCCN(S(=O)(=O)c3cccc4cccnc34)C2)c(OC)c1 (centres undefined) |
| -1% | CN1CCN(C(=O)CN(CCc2ccccc2)S(C)(=O)=O)CC1 |
| 4µM* | CC1CCCN(CCC(=O)c2ccc(Br)cc2)C1 (centres undefined) |
| -15% | COc1ccc(Cn2c3ccc(OC)cc3c3nc4ccccc4nc32)cc1 |
| -13% | O=C(CSc1nnc(NCc2ccccc2)s1)N1CCOCC1 |
| -19% | COc1ccc(C(c2nnnn2Cc2ccc(F)cc2)N2CCN(c3ccc(OC)cc3)CC2)cc1 (centres undefined) |
| -22% | O=C(COC(=O)c1ccc(O)cc1)Nc1ccc(N2CCCCC2)cc1 |
| 1% | COc1ccc(NC(=O)c2cccnc2Sc2ccccc2)c(OC)c1 |
| -6% | CC(C)C1=C[C@@]23CC[C@@H]4[C@](C)(CCC[C@@]4(C)C(=O)O)[C@@H]2C[C@@H]1[C@@H](C(=O)O)[C@@H]3C(=O)O |
| -29% | COc1ccc2cc(CCNC(=O)C3CC3)c(=O)[nH]c2c1 |
| -4% | CCCn1c(SCC(=O)Nc2nc3ccccc3s2)nc2c1c(=O)n(C)c(=O)n2C |
| -5% | CCC/C(O)=C1\C(=O)CC(c2ccccc2)CC1=NC(C)C(=O)O (centres undefined) |
| -10% | COc1ccc(CNC(=O)[C@H](C)[C@H]2C[C@]2(C)[C@H](NC(=O)OCc2ccccc2)c2ccccc2)cc1OC |
| -11% | Cc1cc(N(CN2CCCC2=O)C(=O)c2ccccc2)no1 |
| -19% | COC1(C)CC2C(CC1OC(=O)c1cc([N+](=O)[O-])cc([N+](=O)[O-])c1)C2(C)C (centres undefined) |
| -28% | FC(F)(F)c1cnc(Oc2ccccc2-c2nnco2)c(Cl)c1 |
| -26% | O=c1cc(CSc2ccccn2)c2ccccc2[nH]1 |
| -1% | COc1ccccc1NC(=O)CCNC(=O)Cn1ccc2ccccc2c1=O |
| -2% | Clc1ccc(-c2nnc(-c3ccc(Br)cc3)c(N3CCSCC3)n2)cc1 |
| -9% | COC(=O)c1ccc(NC(C(=O)OC)C(C)C)c([N+](=O)[O-])c1 (centres undefined) |
| -14% | COC(=O)c1cccc(NC(=O)c2onc3c2CCCC3)c1 |
| -13% | CN(C)S(=O)(=O)N(CC(=O)Nc1cccc(F)c1)c1ccccc1 |
| -10% | COC(=O)Nc1cc(C)nc2ccccc12 |
| 2% | COc1cc(C(=O)N/N=C(\C)Cn2nc([N+](=O)[O-])cc2C)ccc1O |
| -12% | Cc1ccc(/C=N/NC(=O)CNC(=O)Cc2ccccc2)o1 |
| -7% | O=C(NCc1cccnc1)NC1(c2ccccc2)CC1 |
| -6% | O=[N+]([O-])c1ccc(CSc2ncnc3c2ncn3[C@@H]2O[C@H](CO)[C@H](O)[C@H]2O)cc1 |
| -4% | O=c1/c(=C/c2ccc([N+](=O)[O-])cc2)sc2n1CCCN=2 |
| -15% | COc1ccc(-c2c(O)c3c(OC)c4c(cc3oc2=O)OC(C)(C)CC4)cc1 |
| -10% | C/C(=N/OC(=O)c1ccc(C)cc1)c1cccs1 |
| ? | Cc1nn(-c2cc(C)c3ccccc3n2)c2c1C1C(C2)C1(C)C (centres undefined) |
| -5% | COc1ccc(OC)c(Nc2ccc(Nc3cc(OC)ccc3OC)nn2)c1 |
| -9% | CSc1nc(=O)n2cccc(C)c2n1 |
| -8% | Oc1c(CN2CCOCC2)cc2c(c1-c1c(O)c(CN3CCOCC3)cc3c1CCCC3)CCCC2 |
| -5% | NC(=O)CSc1ccc(Br)cc1 |
| -3% | Cn1c(=O)c2c(nc(NCCNC(=O)c3ccco3)n2Cc2ccccc2Cl)n(C)c1=O |
| 2% | O=[N+]([O-])c1cc(C(F)(F)F)ccc1Cl |
| -6% | CCOc1cccc(/C=N/Nc2ccc(S(=O)(=O)N(CC)CC)cn2)c1O |
| 0% | CN(C)CCOCCP(=O)(c1ccccc1)c1ccccc1 |
| -12% | CC(=O)N1CCN=C1SCc1ccc(Cl)cc1 |
| -18% | CCC(OC(=O)c1ccco1)C(=O)NCc1ccco1 (centres undefined) |
| -19% | Cc1cc2c(c(=O)n1Cc1ccco1)C(c1cccnc1)C(C#N)=C(N)O2 (centres undefined) |
| -11% | O=c1[nH]ncc(N/N=C/c2ccccc2)c1Cl |
| -7% | COc1ccc(-c2nc3c(c4c2C[C@H](c2ccccc2)OC4)CN(C(=O)C2CC2)CC3)c(C)c1 |
| 2% | Cc1cccc2cc(-c3nc4c(C)cccn4c3NCc3ccco3)c(=O)[nH]c12 |
| 5% | CSc1ccccc1NC(=O)CN(c1cccc(C)c1)S(C)(=O)=O |
| 16µM* | Cc1ccc(C(CC(=O)NCc2ccco2)c2ccccc2)c(O)c1 (centres undefined) |
| ? | CCN(CC)CCNC(=O)CCCCCn1c(=O)[nH]c2cc(C(=O)OC)ccc2c1=O |

Later entries:
| HPGD block | canonical_smiles |
| --- | --- |
| 0% | O=[N+]([O-])c1ccc(-c2cc(-c3ccc(Cl)cc3)n[nH]2)cc1 |
| -4% | COc1ccc(NC(=O)CCCn2c(=O)[nH]c3ccccc3c2=O)cc1 |
| -19% | CN(CCc1ccccn1)C(=O)c1nn2c(C(F)(F)F)cc(-c3ccco3)nc2c1Cl |
| 1% | CCCCN1C(=O)C2C(C(=O)Nc3cccc(OC)c3)C3C=CC2(O3)C1C(=O)NC1CCCCC1C (centres undefined) |
| -7% | C=CCn1c(SCC(=O)Nc2c(C)n(C)n(-c3ccccc3)c2=O)nc2sc(C)c(C)c2c1=O |
| -11% | CCOCCCNCc1ccc(OC)c(OC)c1 |
| -10% | COC(=O)Oc1ccc(/C=N/NC(=O)CN(c2ccccc2Br)S(C)(=O)=O)cc1OC |
| -18% | O=C(CCNS(=O)(=O)c1ccc(Br)s1)N1CCN(c2ccccc2)CC1 |
| -4% | OCc1ccccc1 |
| -18% | C=CCN1CC(c2nc3ccccc3n2Cc2cccc3ccccc23)CC1=O (centres undefined) |
| -15% | C=Cc1c(C)c2cc3[nH]c(cc4nc(cc5nc(cc1[nH]2)C(C)=C5CCC(=O)O)C(CCC(=O)O)=C4C)c(C)c3C=C |
| ? | COC(=O)Nc1c(-c2ccccc2)nc2ccc(C)cn12 |
| -3% | COC(=O)C1=C(C(=O)OC)[C@@H]2N(Cc3ccccc3)c3ccccc3[C@@]23C[C@@H](C(=O)OC)N(S(=O)(=O)c2ccc([N+](=O)[O-])cc2)C3=N1 |
| -2% | COC(=O)C1=C(C(=O)OC)[C@@H]2Nc3ccccc3[C@@]23C[C@@H](C(=O)OC)N(S(=O)(=O)c2ccc4c(c2)OCCN4C)C3=N1 |
| -14% | Cc1cccc(-n2ccnc2SCC(=O)Nc2nnc(C)s2)c1 |
| 2% | CN(CC(=O)O)Cc1nc2ccccc2[nH]1 |
| -20% | CCCCn1c(CCC(=O)O)ccc1-c1cccs1 |
| -16% | O=C(C1CC1)N1CCc2cc(Br)cc(S(=O)(=O)NC3CCCCC3)c21 |
| -12% | CCC1CCc2c(sc3nc(SCC(=O)NCc4ccco4)n(-c4ccccc4)c(=O)c23)C1 (centres undefined) |
| -18% | Cc1occc1C(=O)n1cnc2ccccc21 |
| 0% | O=C(C1CCN(c2nnc(-n3cccc3)s2)CC1)N1CCN(Cc2ccc3c(c2)OCO3)CC1 |
| -11% | O=S1(=O)CCN2C(c3ccco3)=CSC2=N1 |
| -18% | Cc1oc(-c2cccc(Cl)c2)nc1CN1CCCC(C(=O)NC(C)c2ccc3c(c2)OCCO3)C1 (centres undefined) |
| -8% | COc1ccc(CCNC(=O)CC2SC(=NCCc3ccccc3)NC2=O)cc1 (centres undefined) |
| -1% | COc1ccc(S(=O)(=O)NCc2ccc3c(c2)OCO3)cc1C |
| -4% | Cc1cc(C)cc(C(=O)N(NC(=O)Nc2ccc(Cl)cc2)C(C)(C)C)c1 |
| -8% | Cc1cc(N(CN2CCCC2=O)C(=O)c2ccc(F)cc2)no1 |
| -29% | CCOC(=O)C1CCN(C(c2cccnc2)c2c(NC(=O)c3ccco3)sc(C)c2C)CC1 (centres undefined) |
| -16% | CCOC(=O)NC(=O)COC(=O)Cc1cc(OC)c(OC)c(OC)c1 |
| -6% | C1CCN(c2nc3nonc3nc2N2CCCCC2)CC1 |
| -8% | CN1CCN(C(=S)NC(=O)/C=C/c2cccc3ccccc23)CC1 |
| -1% | O=C1NC(c2ccccc2)=NC1(Nc1ccccn1)C(F)(F)F (centres undefined) |
| 0% | CCC(=O)NC(Nc1nc(C)cs1)(C(=O)OC)C(F)(F)F (centres undefined) |
| 4% | CCN(CC#CCC(O)(c1ccccc1)c1ccccc1)C(C)C |
| -13% | Cc1c(-c2ccco2)[n+](=O)c2c(n1[O-])CCCCC2 |
| -13% | Nc1ccccc1S(=O)(=O)NC1=NCCCCC1 |
| -5% | CC(C)=CC(=O)Nc1nnc(C(C)C)s1 |
| -21% | Cc1cc(N2CCN(C(=O)c3ccco3)CC2)nc(-c2ccccc2)n1 |
| -2% | Cc1cc(S(=O)(=O)NCc2cccnc2)ccc1-n1cnnn1 |
| -12% | O=C1Nc2c(c(=O)[nH]c(=O)n2-c2ccccc2)C1(Nc1ncccn1)C(F)(F)F (centres undefined) |
| ? | COc1cccc(-c2ccc(C#N)c(SCC(=O)NCCc3cccc(Cl)c3)n2)c1 |
| -23% | Cc1cccc(C(=O)Nc2nnc(-c3ccc(C(C)(C)C)cc3)s2)c1 |
| -8% | COc1ccc(N(CC(O)Cn2cnc3ccccc32)S(=O)(=O)c2ccc(C)cc2)cc1 (centres undefined) |
| -10% | CCOC(=O)Cc1c(C)nc2cc(C)nn2c1C |
| -11% | C=CCOC(=O)C1C(=O)CC(C)(O)C(C(=O)OCC=C)C1c1ccc(OC)cc1 (centres undefined) |

Gathered by group, the compounds so far containing fluorine (ten)
| HPGD block | canonical_smiles |
| --- | --- |
| -12% | Cn1c(SCc2cccc(C(F)(F)F)c2)nnc1-c1ccco1 |
| -19% | COc1ccc(C(c2nnnn2Cc2ccc(F)cc2)N2CCN(c3ccc(OC)cc3)CC2)cc1 (centres undefined) |
| -28% | FC(F)(F)c1cnc(Oc2ccccc2-c2nnco2)c(Cl)c1 |
| -13% | CN(C)S(=O)(=O)N(CC(=O)Nc1cccc(F)c1)c1ccccc1 |
| 2% | O=[N+]([O-])c1cc(C(F)(F)F)ccc1Cl |
| -19% | CN(CCc1ccccn1)C(=O)c1nn2c(C(F)(F)F)cc(-c3ccco3)nc2c1Cl |
| -8% | Cc1cc(N(CN2CCCC2=O)C(=O)c2ccc(F)cc2)no1 |
| -1% | O=C1NC(c2ccccc2)=NC1(Nc1ccccn1)C(F)(F)F (centres undefined) |
| 0% | CCC(=O)NC(Nc1nc(C)cs1)(C(=O)OC)C(F)(F)F (centres undefined) |
| -12% | O=C1Nc2c(c(=O)[nH]c(=O)n2-c2ccccc2)C1(Nc1ncccn1)C(F)(F)F (centres undefined) |

(continued)
| HPGD block | canonical_smiles |
| --- | --- |
| -13% | O=C(c1ccncc1)N1C2C=CC(C2)C1(C(F)(F)F)C(F)(F)F (centres undefined) |
| -16% | C[N+]1(CCOc2ccc([N+](=O)[O-])cc2)CCOCC1 |
| ? | Cc1c(C2=CCN(S(=O)(=O)c3ccc(Cl)cc3)CC2)c2ccccc2n1C |
| -14% | CCCCS(=O)(=O)Nc1ccc(C(=O)NCC2CCCO2)cc1 (centres undefined) |
| -5% | Cc1onc(-c2ccccc2Cl)c1C(=O)NCc1cccnc1 |
| -13% | COc1ccc(C(=O)N2CCC3(CC2)CN(CC(C)C)C3)cc1 |
| -2% | COc1ccccc1C1C(C(N)=O)=C(C)Nc2nc(-c3ccc(Cl)cc3)nn21 (centres undefined) |
| ? | NC(=O)c1cc(-c2ccccc2)sc1NC(=O)CN1CCCCC1 |
| -9% | CC(C)(C)NC(=O)NC(=O)COc1ccc(Br)cc1Br |
| -6% | COc1cccc(-c2nnn(CC(=O)NC3CCCC3)n2)c1OC |
| -6%&5%&0%&-9%&0% | CCCNC(=O)NS(=O)(=O)c1ccc(Cl)cc1 |
| -4% | O=C(N/C(=C\c1cccs1)C(=O)N1CCCCCC1)c1ccccc1 |
| 3% | COc1cccc(C(=O)N2CCN(S(=O)(=O)Cc3ccccc3)CC2)c1OC |
| -1% | CCCCCCNC(=O)CC(NS(=O)(=O)c1ccc(OC)cc1)C(C)C (centres undefined) |
| -11% | O=S(=O)(NC1CC1)c1ccc(S(=O)(=O)N(Cc2ccccn2)C2CCCC2)cc1 |
| -9% | O=C(Cc1cn2ccsc2n1)Nc1nc2c(s1)CN(Cc1ccccc1)CC2 |

Source: PubChem BioAssay
